HSD17B inhib: blocks hydroxysteroid 17-beta dehydrogenase activity; Potency, µM (titrated, usually from 57.1 µM), without a hit: at the top dose activity change, negative = inhibition, most hits filed as inhibitors; hit rate 7.6% among 75,000; recombinant HSD17B10, NADH fluorescence kinetic; many of its hits are not listed in these tables; active means well fitted inhibition curve with a large enough effect; inconclusive means small, poorly fitted or top-dose-only effect; inactive means no such curve, though single readings can be large or run the other way;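 further: the protocol describes HADH2 (HSD17B10) and not the HSD17B4 of the title; nearly all actives have a fitted effect of over 70% in size; most hits overshoot -100% by far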
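20 nM HADH2, pH 9.0 Tris/Tween; cpd preinc 15 min RT; start w/ 1 mM NAD+ + 90 uM b-hydroxybutyryl-CoA; kinetic fluor ex360/em450 q30s x 4 min; delta last-first.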
An asterisk follows results filed as active; ? = inconclusive; & = joins results of further samples; [ ] = another dose, or the depositor's remark. On the % scale 0 is the no-effect control and ±100 the full control effect; potency means the concentration at half of the fitted maximal effect. The list is partial (hit frequency here may not be typical).

O=C(C1CCN(S(=O)(=O)c2cccs2)CC1)N1CCCCCC1
  HSD17B inhib: -1.8%
CCCc1cc(=O)n2[nH]c(CCc3ccccc3)nc2n1
  HSD17B inhib: -1.7%
O=c1[nH]c(=O)n(CCO)c2nnn(Cc3ccccc3)c12
  HSD17B inhib: -2.0%
CO[C@H]1COC(=O)[C@H](C)NC(=O)[C@@H](C)COC(=O)C/C=C\[C@@H]1C
  HSD17B inhib: 9.0%[11.4 µM]
CN(C)c1ccc(C(=C2C=CC(=[N+](C)C)C=C2)c2ccccc2)cc1
  HSD17B inhib: 15.8µM*
CCN(CC)C(=O)C1CCN(Cc2ccc(Br)cc2)CC1
  HSD17B inhib: 8.2%
CCOc1ccc(C(=O)c2ccc(OC)c(O)c2O)cc1
  HSD17B inhib: -17.5%
COc1ccccc1-c1nccc(Nc2ccc(F)cc2)n1
  HSD17B inhib: 4.9%
CCOc1ccc2[nH]c(C)c(CN3CCCCC3)c(=O)c2c1
  HSD17B inhib: 3.98µM*
CCOC(=O)c1ccc2[nH]cc(C(C)=O)c(=O)c2c1
  HSD17B inhib: 25.1µM*
CCCC[C@H]1C(=O)N(c2ccccc2)N(c2ccc(O)cc2)C1=O
  HSD17B inhib: -15.3%[25.6 µM]
CN(C)C(=O)c1ccc(-c2cc(-n3ccnc3)ncn2)cc1
  HSD17B inhib: -5.3%
COc1ccc(NC(=O)Cn2nnc(C(N)=O)c2N)c(OC)c1
  HSD17B inhib: 5.9%
COc1ccc(S(=O)(=O)CCc2nc3ccccc3s2)cc1
  HSD17B inhib: 5.2%
CCN(CCCNC(=O)C1CCN(S(=O)(=O)c2c(C)[nH]c(=O)[nH]c2=O)CC1)c1cccc(C)c1
  HSD17B inhib: -1.3%
O=C(Nc1cccc(F)c1)N1CC2(CCN(C(=O)c3ccncc3)CC2)C1
  HSD17B inhib: 6.5%
Cc1cc(NC(=O)CCOc2ccccc2)no1
  HSD17B inhib: 0.8%
C/C(=N\O)C1(C)N(O)C(C)(C)C(c2ccc(Br)cc2)=[N+]1[O-] (stereo not drawn)
  HSD17B inhib: -7.0%
CC(C)C(c1nnnn1C1CCCC1)N1CCN(C(=O)c2ccco2)CC1 (stereo not drawn)
  HSD17B inhib: 4.6%
Clc1ccccc1-c1ccc2ncnc(NCc3cccnc3)c2c1
  HSD17B inhib: 1.0%
COC(=O)c1c(NC(=O)C2CC2)sc2c1CCN(C(C)=O)C2
  HSD17B inhib: ?
COc1ccc(-c2cc(C(F)F)n3ncc(C(=O)N4CCSCC4)c3n2)cc1
  HSD17B inhib: 31.6µM*
CC(=O)C1=C(O)C=C(c2ccco2)CC1c1ccco1 (stereo not drawn)
  HSD17B inhib: -2.3%
O=C(Nc1ccccc1)N1CCCC2(CCN(S(=O)(=O)c3ccccc3)CC2)C1
  HSD17B inhib: 3.2%
CCN(CC)CCCN1C(=O)c2oc3ccccc3c(=O)c2C1c1cccnc1 (stereo not drawn)
  HSD17B inhib: ?

Molecules shown so far containing a furan ring, fused or not:
CC(C)C(c1nnnn1C1CCCC1)N1CCN(C(=O)c2ccco2)CC1 (stereo not drawn)
  HSD17B inhib: 4.6%
CC(=O)C1=C(O)C=C(c2ccco2)CC1c1ccco1 (stereo not drawn)
  HSD17B inhib: -2.3%

(more compounds)
CC1(C)[N+]([O-])=C2C(=[N+]([O-])C1(C)C)c1ccccc1/C2=N\O
  HSD17B inhib: -2.1%
COc1ccccc1CNC(=O)c1ccc(CNc2c(N3CCCC3)c(=O)c2=O)cc1
  HSD17B inhib: 1.6%
COc1ccc2c(c1)c(C(=O)N1CCN(C)CC1)c(C)n2-c1ccccc1
  HSD17B inhib: -2.1%
COC(=O)COc1ccc(S(=O)(=O)Nc2ccc3c(c2)OCO3)cc1
  HSD17B inhib: -6.9%
Cc1scc(C(=O)Nc2ccon2)c1-c1ccccc1
  HSD17B inhib: -0.6%
CCCCC1CN2C(CCC(C)C2c2ccc(Br)cc2)C(=O)O1 (stereo not drawn)
  HSD17B inhib: 4.7%&2.4%&4.0%[11.4 µM]
CC1CCN(Cc2nc3c(c(=O)n(C)c(=O)n3C)n2CCc2ccccc2)CC1
  HSD17B inhib: 5.2%
Cc1ccc2c(NC(=O)C3CC3)cccc2n1
  HSD17B inhib: 5.6%
Cc1cccc(C(=O)NC2CC3CCCC(C2)N3C(=O)NC2CCCCC2)c1 (stereo not drawn)
  HSD17B inhib: 2.9%
COc1ccc(NC(=O)CSC2=NC(=O)CC(C)=N2)cc1
  HSD17B inhib: 9.2%
COc1ccc(OC)c(NC(=O)C(CC(C)C)NC(=O)C2CCCCC2)c1 (stereo not drawn)
  HSD17B inhib: 5.1%
O=C(c1ccco1)N1CCC2(CCN(Cc3ccccc3)CC2)CC1
  HSD17B inhib: 5.6%
CS(=O)(=O)N(CC(=O)NCc1ccc2c(c1)OCO2)Cc1ccccc1
  HSD17B inhib: 7.8%

For convenience, 5 of the compounds above.
CC1(C)[N+]([O-])=C2C(=[N+]([O-])C1(C)C)c1ccccc1/C2=N\O
  HSD17B inhib: -2.1%
COc1ccccc1CNC(=O)c1ccc(CNc2c(N3CCCC3)c(=O)c2=O)cc1
  HSD17B inhib: 1.6%
COc1ccc2c(c1)c(C(=O)N1CCN(C)CC1)c(C)n2-c1ccccc1
  HSD17B inhib: -2.1%
COC(=O)COc1ccc(S(=O)(=O)Nc2ccc3c(c2)OCO3)cc1
  HSD17B inhib: -6.9%
Cc1scc(C(=O)Nc2ccon2)c1-c1ccccc1
  HSD17B inhib: -0.6%

As entered above.
COc1ccc(OC)c(NC(=O)C(CC(C)C)NC(=O)C2CCCCC2)c1 (stereo not drawn) – HSD17B inhib: 5.1%
COc1ccc2c(c1)c(C(=O)N1CCN(C)CC1)c(C)n2-c1ccccc1 – HSD17B inhib: -2.1%
CS(=O)(=O)N(CC(=O)NCc1ccc2c(c1)OCO2)Cc1ccccc1 – HSD17B inhib: 7.8%
Cc1ccc2c(NC(=O)C3CC3)cccc2n1 – HSD17B inhib: 5.6%
CCCCC1CN2C(CCC(C)C2c2ccc(Br)cc2)C(=O)O1 (stereo not drawn) – HSD17B inhib: 4.7%&2.4%&4.0%[11.4 µM]
Cc1cccc(C(=O)NC2CC3CCCC(C2)N3C(=O)NC2CCCCC2)c1 (stereo not drawn) – HSD17B inhib: 2.9%

High-throughput results: PubChem, National Center for Advancing Translational Sciences (NCATS)
